From PubChem BioAssay
INS-1E GSIS act = GLuc luminescence reporter in INS-1E cells, primary screen for activators of glucose-dependent secretion of insulin; INS-1E GLuc reporter insulin secretion, 2-3 h; activation, % at 16.6 µM; 370,000 compounds, 0.61% hits; AID 743287, 2014;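 active = lowest replicate activation of at least 40%, so every replicate reaches that level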;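 also: 0% = median of neutral control wells and 100% = median of IBMX positive control wells; some compounds called inactive have numbers as strong as hits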
ERAP1 HTS inh = human ERAP1 aminopeptidase inhibitors, primary screen, biochemical, single point, plate reader; Endoplasmic reticulum aminopeptidase 1 (Homo sapiens), Q9NZ08; recombinant ERAP1, Leu-AMC fluorescence, 60 min; inhibition, % at 10.7 µM; 340,000 compounds, 0.15% hits; AID 652197, 2013;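 active = mean replicate inhibition of at least 30%, or all replicates individually reaching that 30% level; inactive = mean below 30% and not every replicate reaching it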;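 also: 0% = neutral control wells and 100% = L-leucinethiol positive control wells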
esBAF inh = Bmi1 luciferase reporter increase in mESCs, primary screen, esBAF inhibitor project, mouse ES cells, Bmi1 luciferase knock-in, single point. AID 602393, 2012. reporter increase, % at 12.5 µM. 24 h; 100% = twice the neutral-well signal. 350,000 compounds, 2% hits; in the data active = activation above about 40%;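 also: 0% = median of the plate's neutral control wells and 100% = double that signal; a rise in the Bmi1 reporter signal indicates esBAF inhibition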
F508del corr = F508del CFTR correction, initial screen, CFBE line, single point. 350,000 compounds, 0.36% hits. activity (quench increase), % at 7.58 µM. CFBE cells, YFP halide quenching; stimulated with forskolin plus potentiator P3; % fluorescence drop versus neutral controls;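 active = mean added fluorescence quench of at least 8% versus neutral control, with both replicates also reaching 8%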;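 also: cells transiently co-express mutant CFTR-F508del with the halide-sensitive YFP; corrector assay measuring rescue of mutant channel to the surface after 24 h compound exposure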
XiGFP reactiv = activators of inactive X chromosome reactivation, primary screen, imaging, XiGFP fibroblasts, GFP high-content imaging, set 2. XiGFP mouse fibroblasts, % GFP-positive cells imaging, 3 d; cells co-treated with 5-aza-dC sensitizer; scaled so ellipticine positive control = 100%. activation, % at 7.58 µM. 360,000 compounds, 0.055% hits;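 active = mean normalized replicate activation at least 10% and every replicate at or above 10%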;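 also: 0% = median of on-plate neutral control wells and 100% = ellipticine 6 µM median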
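Schedule: 3 d treatment, 15 min room-temperature fixation; system: 68-5-11 XiGFP fibroblast line; buffer or medium: DMEM plus 5-aza-dC sensitizer; control set: ellipticine 6 µM positive control; compound: one concentration, pinned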
RAD54 inh = inhibitors of human RAD54 branch migration, primary screen, biochemical, fluorescence, single point; RAD54 Holliday junction branch migration, FAM/BHQ fluorescence; inhibition, % at 10.4 µM; 360,000 compounds, 0.14% hits; AID 602329, 2012;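 active = mean normalized replicate activity at least 40 and at least half of replicates scoring 40 or more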;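 also: 0% = median of neutral control wells and 100% = median of positive control wells; inhibitors cause a drop in the FAM fluorescence signal; in these data hits start at about 50%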
Target sequence (Q92698 whole entry, looked up): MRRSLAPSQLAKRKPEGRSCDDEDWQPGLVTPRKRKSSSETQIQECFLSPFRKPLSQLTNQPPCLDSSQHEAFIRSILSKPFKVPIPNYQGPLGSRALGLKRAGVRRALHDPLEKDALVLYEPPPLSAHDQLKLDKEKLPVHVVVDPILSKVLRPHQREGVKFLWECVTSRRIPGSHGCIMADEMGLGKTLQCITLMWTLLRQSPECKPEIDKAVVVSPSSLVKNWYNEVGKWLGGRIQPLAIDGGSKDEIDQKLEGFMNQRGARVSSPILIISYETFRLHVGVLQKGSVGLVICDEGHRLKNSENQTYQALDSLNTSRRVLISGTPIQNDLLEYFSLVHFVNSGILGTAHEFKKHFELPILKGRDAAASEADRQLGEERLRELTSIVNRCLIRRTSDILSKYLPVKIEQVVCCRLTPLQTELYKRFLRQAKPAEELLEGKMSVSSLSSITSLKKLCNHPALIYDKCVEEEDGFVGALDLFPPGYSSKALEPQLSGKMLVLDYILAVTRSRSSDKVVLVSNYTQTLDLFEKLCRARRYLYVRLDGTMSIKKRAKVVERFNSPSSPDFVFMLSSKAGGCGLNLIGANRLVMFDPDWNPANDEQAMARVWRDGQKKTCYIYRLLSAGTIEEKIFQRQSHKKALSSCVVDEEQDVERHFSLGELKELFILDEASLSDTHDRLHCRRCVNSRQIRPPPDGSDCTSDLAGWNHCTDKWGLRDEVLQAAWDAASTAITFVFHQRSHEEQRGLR
RAD52 inh = RAD52 DNA annealing inhibitors, primary screen, biochemical, FRET, single point, set 2; DNA repair protein RAD52 homolog (Homo sapiens), P43351; recombinant RAD52 DNA annealing, FRET fluorescence; inhibition, % at 18.7 µM; 360,000 compounds, 0.46% hits;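 active = every replicate showing at least 50% inhibition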
* hit, by the source's call; / = no result given.

Sample of the layout:
SMILES | INS-1E GSIS act | ERAP1 HTS inh | esBAF inh | F508del corr | XiGFP reactiv | RAD54 inh | RAD52 inh
CCNC(=O)Nc1ccc2c(c1)C(=O)N(C)[C@@H]1CC[C@@H](CC(=O)N[C@H](C)c3ccccc3)O[C@@H]1CO2 | 3.4 | / | -5.2 | / | 0.0 | 4.2 | 1.3
COc1ccc(CCC(=O)NCc2cccc(C(F)(F)F)c2)cc1 | -34.8 | 1.5 | -8.0 | -3.8 | 0.0 | -4.1 | 3.2
Clc1cccc(Sc2ccc(-c3ccccn3)s2)c1 | -8.4 | / | / | -3.1 | 0.2 | / | -1.2
CCOc1ccc2c(c1)/C(=C(\C(Cl)=C(Cl)Cl)[N+](=O)[O-])N2 | 1.0 | 8.5 | / | / | 0.2 | / | -30.5
CCN(CC)CCNc1nc2nonc2nc1NCCN(CC)CC | -1.3 | -2.4 | -12.9 | -0.4 | 0.2 | 6.2 | 5.9
COc1ccc(NC(=O)Nc2ccc3c(c2)C(=O)N([C@H](C)CO)C[C@H](C)[C@H](CN(C)C(=O)CCC(F)(F)F)OCCCC[C@H](C)O3)cc1 | -16.2 | / | 8.0 | 2.6 | -0.6 | -4.8 | /

Results (from the top)
SMILES | INS-1E GSIS act | ERAP1 HTS inh | esBAF inh | F508del corr | XiGFP reactiv | RAD54 inh | RAD52 inh
CCNC(=O)Nc1ccc2c(c1)C(=O)N(C)[C@@H]1CC[C@@H](CC(=O)N[C@H](C)c3ccccc3)O[C@@H]1CO2 | 3.4 | / | -5.2 | / | 0.0 | 4.2 | 1.3
COc1ccc(CCC(=O)NCc2cccc(C(F)(F)F)c2)cc1 | -34.8 | 1.5 | -8.0 | -3.8 | 0.0 | -4.1 | 3.2
Clc1cccc(Sc2ccc(-c3ccccn3)s2)c1 | -8.4 | / | / | -3.1 | 0.2 | / | -1.2
CCOc1ccc2c(c1)/C(=C(\C(Cl)=C(Cl)Cl)[N+](=O)[O-])N2 | 1.0 | 8.5 | / | / | 0.2 | / | -30.5
CCN(CC)CCNc1nc2nonc2nc1NCCN(CC)CC | -1.3 | -2.4 | -12.9 | -0.4 | 0.2 | 6.2 | 5.9
COc1ccc(NC(=O)Nc2ccc3c(c2)C(=O)N([C@H](C)CO)C[C@H](C)[C@H](CN(C)C(=O)CCC(F)(F)F)OCCCC[C@H](C)O3)cc1 | -16.2 | / | 8.0 | 2.6 | -0.6 | -4.8 | /
COc1cc(C)c(Cl)c(C)c1S(=O)(=O)NCc1ccc2c(c1)OCO2 | / | / | -1.9 | / | / | -3.8 | /
C[C@@H]1CN([C@@H](C)CO)C(=O)c2cccc(NS(C)(=O)=O)c2O[C@@H]1CN(C)C(=O)Nc1ccc2c(c1)OCO2 | 14.1 | -1.7 | -11.0 | -0.2 | 0.3 | 1.8 | 12.1
CCCCCc1cc(=O)c2ccccc2o1 | 6.2 | 0.4 | 50.2* | -1.8 | 0.0 | -6.0 | -12.6
C[C@@H]1CCCCO[C@@H](CN(C)C(=O)Nc2ccc(F)cc2)[C@H](C)CN([C@@H](C)CO)C(=O)c2cc(NS(=O)(=O)c3ccc(Cl)cc3)ccc2O1 | -13.0 | -2.5 | 2.8 | 1.8 | 0.4 | -4.3 | 13.9
C[C@@H]1CCCCO[C@@H](CN(C)C(=O)c2ccncc2)[C@H](C)CN([C@@H](C)CO)C(=O)c2cc(NC(=O)Cc3ccccc3)ccc2O1 | 6.1 | -4.2 | 2.2 | -1.5 | 0.0 | 16.1 | -4.2
CCc1ccc(C2C(C(=O)O)c3ccccc3C(=O)N2C)cc1 (stereo unspecified) | 19.9 | / | 7.2 | / | / | -0.4 | /
CC1CCN(C(=O)CCNC(=O)Cn2cnc3sc4c(c3c2=O)CCCC4)CC1 | / | / | / | / | / | -2.5 | /
O=C(CNC(=O)Cn1cnc2sc3c(c2c1=O)CCCC3)NCc1ccccn1 | 30.7 | -0.4 | 1.2 | 0.5 | / | -2.7 | -4.3
O=C(Nc1ccccc1N1CCCCC1)c1ncoc1-c1cccc(F)c1 | / | 4.0 | / | -2.6 | 0.0 | 13.5 | -12.0
COc1ccc(C(=O)COC(=O)c2ccccn2)cc1OC | 22.5 | 3.4 | -7.2 | 1.0 | 0.4 | -0.9 | -0.7
CCN(CC)C(=O)C1=C(C)Nc2nnnn2C1c1cccnc1 (stereo unspecified) | / | / | -4.5 | / | / | -2.9 | /
Cc1cccc(NC(=O)c2ccc(NCCO)c([N+](=O)[O-])c2)n1 | 13.4 | 0.1 | 36.4 | 0.2 | -0.1 | / | -24.3
O=S(=O)(c1ccc2nc(SCc3cccc(Cl)c3)[nH]c2c1)N1CCOCC1 | -18.9 | 7.7 | / | / | 0.0 | 6.2 | 0.2
Cc1ccc(NC(=O)C2(c3ccc([N+](=O)[O-])cc3)CCCC2)cc1 | -0.4 | -2.8 | -6.1 | -2.5 | 0.0 | -3.6 | -25.4
Cc1cnc(C(=O)Nc2nccs2)cn1 | / | / | 29.8 | / | / | -0.2 | /
CCn1c(COc2ccc(Cl)cc2)nnc1SCC(=O)Nc1ccc2c(c1)OCCO2 | / | / | -3.4 | / | / | 2.0 | /
COc1ccc(OC)c(NC(=O)Cc2coc3cc(C)cc(C)c23)c1 | / | / | -6.0 | / | / | 3.6 | /
C[C@@H]1CN([C@@H](C)CO)C(=O)c2cc(NS(C)(=O)=O)ccc2O[C@@H](C)CCCCO[C@H]1CN(C)S(=O)(=O)c1cccs1 | 3.5 | -4.3 | -1.9 | 0.1 | -0.2 | 3.0 | 8.7
c1ccc(-c2nn3cnnc3c3ccccc23)cc1 | -6.7 | -1.0 | / | -1.2 | 0.0 | / | -3.2
(list continues)
SMILES | INS-1E GSIS act | ERAP1 HTS inh | esBAF inh | F508del corr | XiGFP reactiv | RAD54 inh | RAD52 inh
Cc1ccc(S(=O)(=O)N(C)C[C@@H]2Oc3c(NC(=O)NC4CCCCC4)cccc3C(=O)N([C@@H](C)CO)C[C@@H]2C)cc1 | -4.3 | 1.6 | -3.0 | 1.2 | -0.8 | 5.8 | -18.6
C=C(C)c1cccc(C(C)(C)NC(=O)NCC2COCCO2)c1 (stereo unspecified) | -0.9 | / | -2.9 | / | / | 6.5 | /
CCOC(=O)CN1C(=O)SC(Nc2ccc(C)cc2)C1=O (stereo unspecified) | 4.8 | -1.7 | / | -1.0 | 0.2 | -19.9 | -9.9
O=C(NN=Cc1ccc(F)c(F)c1)c1ccc(NS(=O)(=O)c2cccs2)cc1 | -20.5 | -2.1 | / | 3.4 | 0.3 | / | -12.3
CCN1CCCC1CNS(=O)(=O)c1cccc(C(F)(F)F)c1 (stereo unspecified) | -5.9 | 30.3* | / | 1.1 | -0.1 | / | -24.6
CSc1nc2c(c(=O)n1-c1ccccc1)SCC2 | 29.2 | / | -10.9 | / | / | -0.1 | /
CSc1nc2c(c(=O)n1-c1ccc(F)cc1)SCC2 | 10.1 | 1.5 | -4.3 | / | / | 6.2 | -0.7
Cc1cc(-c2nnc(SCC(=O)Nc3nccs3)o2)no1 | 5.4 | -0.7 | / | 6.1 | -0.3 | -1.5 | -24.0
C[C@@H]1CN([C@@H](C)CO)S(=O)(=O)c2ccc(C#CCN(C)C)cc2O[C@@H]1CN(C)Cc1cccnc1 | 15.6 | 0.9 | -4.8 | -1.0 | -1.1 | -15.3 | 0.9
O=C(C[C@@H]1C[C@H]2c3cc(NC(=O)NC4CCCCC4)ccc3O[C@H]2[C@H](CO)O1)NCc1ccccc1 | -0.2 | 4.1 | 5.6 | -2.2 | 0.2 | 2.5 | -0.2
O=C1NC[C@H](c2ccccc2)OC(=O)[C@H](Cc2ccc(F)cc2)CC/C=C/C[C@@H]1CC(=O)N(CCO)Cc1ccccc1 | -4.9 | -3.7 | 2.3 | 0.6 | -0.1 | 12.5 | -2.0
Cc1cc(C)cc(C(=O)N/N=C/c2ccoc2)c1 | 9.6 | -1.5 | / | 4.3 | 0.1 | -5.8 | -20.6
CC1(C)[C@H](C(=O)O)N2C(=O)C[C@H]2S1(=O)=O | 10.2 | 1.3 | -5.3 | -0.9 | / | 1.2 | -2.0
O=C(Nc1ccc(Br)cn1)c1cccc(C(=O)Nc2ccc(Br)cn2)c1 | 10.6 | -0.2 | -8.4 | -1.0 | 0.0 | 1.5 | -7.6
Nc1nc(NCc2c(F)cccc2Cl)nn1-c1ccccc1 | / | / | 15.2 | / | / | -2.7 | /
O=C(O)COCCN1CCN(C(c2ccccc2)c2ccc(Cl)cc2)CC1 (stereo unspecified) | / | / | -16.0 | / | / | -0.2 | /
CCCOC1(NC(=O)c2ccccc2)C(C)=CC(=O)C=C1C | / | / | -11.5 | / | / | 5.5 | /
Cc1cccc(NC2SC(=O)N(CC(=O)O)C2=O)c1 (stereo unspecified) | / | / | 3.0 | / | / | -1.1 | /
Cc1cccc(-c2nnc(SCC(=O)O)n2Cc2ccccc2)c1 | 14.9 | -3.3 | -3.4 | -1.3 | 0.1 | 4.1 | -12.0
Cn1ncc(Cl)c1C(=O)Nc1ccncc1 | / | / | -6.7 | / | / | 5.1 | /
O=C(CSc1nnc2c(Cl)cc(C(F)(F)F)cn12)NCc1ccc(F)cc1 | / | -2.1 | / | 0.0 | 0.0 | / | -9.7
COc1ccc(NC(=O)Nc2ccc3c(c2)C(=O)N([C@@H](C)CO)C[C@@H](C)[C@H](CN(C)C(=O)CCC(F)(F)F)OCCCC[C@H](C)O3)cc1 | -7.1 | / | 7.5 | -1.7 | -0.2 | -0.5 | /
COc1ccc(CC(=O)N2CCc3cc(OC)c(OC)cc3C2)cc1 | 29.3 | 0.4 | -5.5 | -0.7 | 0.1 | -2.7 | -182.4
COc1ccc(OC)c(-c2csc(N3CCC(c4ccccc4)CC3)n2)c1 | 6.9 | 0.0 | / | -0.7 | 0.0 | / | -10.8
Cc1cc(C)c(NC(=O)C2CCCN2C(=O)NC2CCCCC2)c(C)c1 (stereo unspecified) | / | / | -4.0 | / | / | -2.6 | /
Continuation:
SMILES | INS-1E GSIS act | ERAP1 HTS inh | esBAF inh | F508del corr | XiGFP reactiv | RAD54 inh | RAD52 inh
Cc1cccc(NC(=O)C2(c3ccc([N+](=O)[O-])cc3)CCCC2)c1 | / | / | -9.9 | / | / | 8.0 | /
Cc1ccc(S(=O)(=O)N(C)C[C@H]2Oc3ccc(NC(=O)Cn4cnnn4)cc3C(=O)N([C@@H](C)CO)C[C@H]2C)cc1 | -0.2 | -1.3 | -2.0 | 2.5 | -0.4 | -1.4 | -34.2
CC(=O)Nc1ccc(S(=O)(=O)N[C@@H](C)C(=O)OCC(=O)c2ccc[nH]2)cc1 | -5.7 | 5.0 | 1.8 | -1.4 | -0.1 | -2.9 | -1.5
COc1cccc2cc(C(=O)CS(=O)(=O)c3ccc(Cl)cc3)c(=O)oc12 | / | 3.7 | 7.8 | -2.6 | 0.2 | -0.6 | -9.1
CCc1ccc(C2N3CC4([N+](=O)[O-])CN2CC([N+](=O)[O-])(C3)C4(C)C)cc1 (stereo unspecified) | 6.4 | 3.0 | 16.5 | -2.4 | 0.1 | -4.9 | -15.8
C/C(=N\NC(=O)c1cccs1)c1c(O)cc(C)oc1=O | 23.8 | -0.5 | 62.7* | -2.7 | -0.2 | 7.5 | -14.4
O=C(O)c1cc2ccc3ccccc3c2oc1=O | -16.9 | / | -11.2 | / | / | -2.6 | /
Cc1cc(NC(=O)CSc2nnc(-c3ccccc3Cl)o2)no1 | -9.1 | -6.7 | 9.2 | -1.1 | 0.4 | -4.3 | -11.1
COc1cccc(-c2ccc3c(c2)[C@@H]2[C@@H](CCN2S(=O)(=O)c2cn(C)cn2)[C@H](CO)N3)c1 | -25.0 | / | -18.9 | 2.7 | 0.2 | 4.4 | /
O=C1NC[C@H](c2ccccc2)OC(=O)[C@@H](Cc2ccc(F)cc2)CC/C=C/C[C@H]1CC(=O)N(CCO)Cc1ccccc1 | -16.1 | 3.7 | 10.5 | 1.4 | -0.1 | -0.1 | -7.8

Some of the compounds tested; rates above refer to the full screens.
